KCNQ2 inh – KCNQ2 potassium channel inhibitors, primary screen, cell-based, CHO-K1, FluxOR thallium flux, B-score (AID 2156). Potassium voltage-gated channel subfamily KQT member 2 (Rattus norvegicus), O88943. 20 min; hits give low values; only compounds with negative scores are shown here; some inactives read as strong as hits. B-score at 10 µM. actives 1.1% (n = 310,000);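 active = fluorescence ratio B-score at most minus 3 library SDs, with starting brightness B-score within 2 library SDs, cut at about -5.5 in these data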
Target sequence (O88943 whole entry, looked up): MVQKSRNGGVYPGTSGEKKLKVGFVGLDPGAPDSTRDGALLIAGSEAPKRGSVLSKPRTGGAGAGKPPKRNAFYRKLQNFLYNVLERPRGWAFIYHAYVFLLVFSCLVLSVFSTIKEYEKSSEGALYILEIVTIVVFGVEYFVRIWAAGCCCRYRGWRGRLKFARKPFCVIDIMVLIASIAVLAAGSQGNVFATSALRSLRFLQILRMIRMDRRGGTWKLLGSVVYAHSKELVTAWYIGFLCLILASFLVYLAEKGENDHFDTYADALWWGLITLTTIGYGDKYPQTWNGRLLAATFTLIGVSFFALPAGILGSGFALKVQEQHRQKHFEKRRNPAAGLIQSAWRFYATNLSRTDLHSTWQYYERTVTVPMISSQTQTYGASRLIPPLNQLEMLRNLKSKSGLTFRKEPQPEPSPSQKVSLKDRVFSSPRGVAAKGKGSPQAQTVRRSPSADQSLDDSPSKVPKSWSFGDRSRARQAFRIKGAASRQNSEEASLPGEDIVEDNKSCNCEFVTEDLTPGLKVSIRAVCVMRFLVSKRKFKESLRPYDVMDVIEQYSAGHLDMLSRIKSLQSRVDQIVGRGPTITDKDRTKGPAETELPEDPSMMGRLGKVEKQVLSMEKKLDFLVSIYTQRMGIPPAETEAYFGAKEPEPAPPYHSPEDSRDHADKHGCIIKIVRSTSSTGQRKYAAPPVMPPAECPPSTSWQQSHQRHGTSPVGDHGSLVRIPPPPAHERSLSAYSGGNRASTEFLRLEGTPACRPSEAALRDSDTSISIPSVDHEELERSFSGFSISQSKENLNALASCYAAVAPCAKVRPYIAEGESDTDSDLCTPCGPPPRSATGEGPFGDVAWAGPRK
KCNQ2 inh baseline – recorded beside KCNQ2 inh, whose call it bears; B-score; measured here: initial fluorescence intensity artifact check;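 brightness before thallium and not channel activity; 0 = typical well and far values either way flag optical interference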
An asterisk follows results filed as active; i = inactive.

Sample of the layout:
SMILES	KCNQ2 inh	KCNQ2 inh baseline
OCCC1CN(Cc2cccc3c2OCO3)CCN1C1CCCCC1 (configuration not stated)	i	-0.03
Cc1ccc(/C=N/Nc2nncc(-c3ccccc3)n2)o1	i	0.14
NC(=O)c1ccc(NC(=O)CS(=O)(=O)c2cn(CC(=O)N3CCCCC3)c3ccccc23)cc1	i	-0.14

This part in full (from the top)
SMILES	KCNQ2 inh	KCNQ2 inh baseline
OCCC1CN(Cc2cccc3c2OCO3)CCN1C1CCCCC1 (configuration not stated)	i	-0.03
Cc1ccc(/C=N/Nc2nncc(-c3ccccc3)n2)o1	i	0.14
NC(=O)c1ccc(NC(=O)CS(=O)(=O)c2cn(CC(=O)N3CCCCC3)c3ccccc23)cc1	i	-0.14
CCOC(=O)C1=C(C)NC(=O)NC1c1ccc(OCC(=O)OC)c(OC)c1 (configuration not stated)	i	0.71
S=C(NCc1ccc2c(c1)OCO2)Nc1ccc2nsnc2c1	i	0.76
COCCN1Cc2cccc(C(=O)Nc3cccc(OC)c3)c2C1=O	i	0.99
O=C(CCS(=O)(=O)c1ccccc1)Nc1ccccn1	i	-0.55
COc1ccc(CC(=O)Nc2sc3c(c2C(N)=O)CCCC3)cc1	i	-0.25
COCCCNc1nnc(Cc2ccc(Cl)cc2)c(=O)[nH]1	i	-0.12
Cc1nn(CCC(=O)NNC(=S)Nc2ccc(Cl)cc2)c(C)c1[N+](=O)[O-]	i	-1.5
OC(COc1ccc(CNCCc2ccccc2F)cc1)CN1CCCCC1 (configuration not stated)	i	-0.16
Cc1cc(C)c2cc(C(=O)N3CCc4ccccc4C3)[nH]c2c1	i	0.75
Cc1ccc(-c2noc(CCC(=O)Nc3ccc(C)cn3)n2)cc1	i	-0.9
COc1cc(C(=O)NCc2nnc(SCC(=O)Nc3ccc4c(c3)OCO4)o2)cc(OC)c1OC	i	-1.35
COCc1cc(SC2CCCCC2)nc(C)n1	i	0.47
CC1CCN(C(=O)CSCC(=O)Nc2nc(-c3cccs3)cs2)CC1	i	0.04
Cc1ccc(CN(CC(=O)NCCc2ccccc2)C(=O)c2csnn2)cc1	i	2.92
COc1ccccc1OCc1nnc(SCC(N)=O)n1-c1ccccc1	i	1.92
COc1cc(CNCc2ccco2)cc(OC)c1O	i	-0.22
Cc1ccccc1CN1CCN(S(=O)(=O)c2ccc(F)cc2)CC1	i	0.1

Part of the list above, as comma-separated lines.
smiles,KCNQ2 inh,KCNQ2 inh baseline
COc1cc(C(=O)NCc2nnc(SCC(=O)Nc3ccc4c(c3)OCO4)o2)cc(OC)c1OC,i,-1.35
CCOC(=O)C1=C(C)NC(=O)NC1c1ccc(OCC(=O)OC)c(OC)c1 (configuration not stated),i,0.71
COCc1cc(SC2CCCCC2)nc(C)n1,i,0.47

More compounds follow.
SMILES	KCNQ2 inh	KCNQ2 inh baseline
Cc1ccc(C(=O)NN(C)c2nc3ccccc3nc2C(F)(F)F)cc1	i	-0.29
CN1/C(=C\C(=S)NC(=O)c2ccccc2Cl)C(C)(C)c2ccccc21	i	1.32
CC(C)CN(C(=O)COC(=O)c1cncc(Br)c1)c1c(N)n(Cc2ccccc2)c(=O)[nH]c1=O	i	0.64
CC(=O)Nc1cccc(NC(=O)C2CCCN2C(=O)Nc2ccc(Cl)cc2)c1 (configuration not stated)	i	-0.19
COCC(=O)Nc1ccc(C(C)C)cc1	i	-0.39
CC(C)CC(=O)N1CCN(S(=O)(=O)c2ccc3ccccc3c2)CC1	i	-0.11
COCCOC(=O)C1=C(C)NC2=C(C(=O)CC(C)(C)C2)C1c1ccc(N(C)C)cc1 (configuration not stated)	i	-0.57
O=C(/C=C/c1ccco1)Nc1ccc2c(c1)OCO2	i	0.01
O=C(CCSc1nc2ccccc2o1)N1CCOCC1	i	-0.47
NC1=NC[C@H](Cc2ccccc2)N1CCc1cccc(F)c1	i	-0.69
CCCCCC1CCC(c2ccc(C(N)=O)cc2)CC1 (configuration not stated)	i	0.34
O=C(Nc1cccc(Cl)c1)N(CCN1CCOCC1)Cc1cccc(Cl)c1	-7.33*	-1.35*
O=C1C=C(Nc2cccc3cccnc23)c2ccccc2C1=O	i	-0.2
O=C(Nc1ccc([N+](=O)[O-])cn1)c1ccc2c(c1)OCO2	i	0.64
O=C1CC(c2ccccc2)CC(O)=C1C=NC1CCCCC1 (configuration not stated)	i	0.67
CCCn1c(N)c(N(CCOC)C(=O)C(C)Oc2ccc(F)cc2)c(=O)[nH]c1=O (configuration not stated)	i	-0.37
COc1ccc(NC(=O)c2cc(-c3cccnc3)nc3c(C)c(C)ccc23)c(OC)c1	i	1.49
Cc1ccc2cc(C(c3nnnn3C3CCCC3)N(Cc3ccco3)Cc3cccs3)c(=O)[nH]c2c1 (configuration not stated)	i	1.01
Cc1ccccc1N/C(=N/S(=O)(=O)c1ccccc1)c1ccc(F)cc1	i	0.28
CNS(=O)(=O)Cc1ccc2[nH]cc(CCN(C)C)c2c1	i	-0.43
COCC1CCN(Cc2nc(COc3ccccc3)no2)C1 (configuration not stated)	i	-2.57
COc1ccc(/C=N/NC(=O)COc2ccc3ccccc3c2)c(C(=O)O)c1OC	i	1.06
CC(=O)c1ccc(NC(=O)Nc2ccccc2)cc1	i	0.19
Cc1ccccc1C(=O)NCC(=O)O	i	0.02
Cc1ccc(C)c(S(=O)(=O)N2CCNCC2)c1	i	-2.06
CN(C)C(=O)c1ccc(NC(=O)CC2SC(N3CCCC3)=NC2=O)cc1 (configuration not stated)	i	0.69
COc1ccc(C(=O)NCC(=O)c2ccccc2)cc1	i	0.97
CN(C)c1ccc(C2Nc3cccc4cccc(c34)N2)cc1	i	-0.8
CCn1c(SCC(=O)NCC2CCCO2)nnc1-c1ccccc1 (configuration not stated)	i	0.31
COc1ccc(CSc2nnnn2-c2ccc(C(N)=O)cc2)cc1[N+](=O)[O-]	i	1.47
Cc1ccc(C)c(N2CCN(C3CCCC(C)C3)CC2)c1 (configuration not stated)	i	1.27
NS(=O)(=O)c1ccc(CNS(=O)(=O)c2cc(Cl)ccc2Cl)cc1	i	0.02
COc1ccc(S(=O)(=O)N2CCN(CC(=O)Nc3ccccc3OC)CC2)cc1	i	-0.13
CCOC(=O)c1ccccc1-c1csc(NS(=O)(=O)c2ccc(Cl)cc2)n1	i	-1.14
CCC(=O)Nc1cccc(C(=O)c2ccccc2)c1	i	-1.14
CCCN(CCC)CCNC(=O)C1CCN(Cc2nc(-c3ccc(Cl)cc3)oc2C)CC1	i	-2.3
CN(Cc1ccnc2ccccc12)C(=O)C1CCC(=O)N(Cc2ccccc2F)C1 (configuration not stated)	i	-0.83
O=C1CC(C(F)(F)C(F)(F)C(F)(F)C(F)F)=Nc2ccccc2N1	i	1.69
CCN(C(=O)c1ccc(NC(C)=O)cc1)c1ccccc1	i	-2.1
COc1cc(OC)cc(C(=O)N2CCCc3ccccc32)c1	i	-0.05
COc1ccc(OCC(=O)Nc2ccc3nc(C)sc3c2)cc1	-9.62*	0.46*
Cc1ccc(S(=O)(=O)NCc2ccccc2)cc1C(=O)N1CCCC(C(F)(F)F)C1 (configuration not stated)	i	0.97
Cc1cc(C)cc(SCc2noc(C(=O)NCCN(C)C)c2C(=O)NCCN(C)C)c1	i	0.04
Cn1c(=O)c2c(nc(Cc3ccccc3)n2C)n(C)c1=O	i	-0.64
CC12CCC(C(=O)NNc3ccccc3)(C(=O)C1=O)C2(C)C (configuration not stated)	i	-0.5
CCc1nc(SCc2ccc(OCC(C)C)cc2)n[nH]1	i	-0.66
Cc1ccc(Nc2cc(C)nc3ncnn23)c(C)c1	i	0.59
COCCCNC(=O)c1c(N)n(/N=C/c2ccccn2)c2nc3ccccc3nc12	i	0.13
Cc1ccccc1N(CC(=O)NC1CCCC1)C(=O)C1(C)CC(=O)N=C2C=CC=CN21 (configuration not stated)	i	0.29
CC(C)(C)NC(=O)COC(=O)c1cncc(Br)c1	i	1.57
COc1ccc(N(CC(=O)Nc2ccc(Cc3ccncc3)cc2)S(=O)(=O)c2ccccc2)cc1	i	-0.94
Cc1cccn2cc(CNC(=O)c3ccc(Br)o3)nc12	i	0.28
CN(C)C(CNC(=S)Nc1ccc(F)cc1)c1cccnc1 (configuration not stated)	i	-1.73
O=C(COc1ccc(Br)cc1)Nc1ccccc1C(=O)NC1CC1	i	-1.1
O=C(COc1ccc(Cl)cc1)N(Cc1ccco1)C1CCS(=O)(=O)C1 (configuration not stated)	i	-1.71
COc1ccc2nccnc2c1[N+](=O)[O-]	i	-0.02
CCN(CC)S(=O)(=O)c1ccc(C(=O)Nc2cc(C)on2)cc1	i	-0.51
Cc1nc2cc(N)ccc2n1C1CCCCC1	i	0.03
CCOC(=O)c1c(N)n(CCOC(=O)c2cccs2)c2nc3ccccc3nc12	i	-0.49
COc1ccc2oc(C(=O)OCC(=O)N3CCN(C(C)=O)CC3)c(C)c2c1	i	-1.37

Next section.
SMILES	KCNQ2 inh	KCNQ2 inh baseline
Cn1nnc(NC(=O)c2cccs2)n1	i	-1.13
CCOc1ccc(/C=C(\C#N)C(=O)NCC2CCCO2)cc1OCC (configuration not stated)	i	-0.85
CCOc1ccc(C(=O)NCC2CCN(CC3CCCCC3)CC2)cc1	i	2.37
CCOC(=O)c1c(C)nn(-c2ccc(NC(=O)CSCC(=O)O)cc2)c1C	i	-1.08
CCN1CCN(c2ccc(S(=O)(=O)N3CCOCC3)cc2NC(=O)COc2ccc(F)cc2Cl)CC1	i	0.68
O=C(CN1CCC(NC(=O)Nc2ccccc2)CC1)Nc1ccc([N+](=O)[O-])cc1	i	-0.08
O=C(Nc1ccccc1)c1cccnc1Nc1ccccc1	i	1.08
COc1ccc(C(=O)NCCSCc2ccc(Cl)cc2)cc1OC	i	-1.1
COc1ccccc1C(=O)NC(=O)COC(=O)c1ccc(Cl)cc1[N+](=O)[O-]	i	0.4
O=C(Nc1ccnn1C1CCN(C(=O)c2ccc(Cl)c(F)c2)CC1)C1CCOC1 (configuration not stated)	i	-0.07
COc1ccc(N2CCOCC2)c(NC(=O)c2ccco2)c1	i	2.16
Cn1cc(CNC(=O)C2CCC(=O)N(Cc3cccc(C(F)(F)F)c3)C2)cn1 (configuration not stated)	i	2.47
O=C(NC1CCCC1)C1CCC(CNS(=O)(=O)c2ccc(F)cc2)CC1 (configuration not stated)	i	-0.27
Cc1cccc(/C=C/C(=O)c2ccc(N3CCOCC3)cc2)c1	i	0.57
O=C(N/N=C/c1cc(Br)c(Br)o1)c1cccnc1	i	5.01
Cc1ccc(N2CN(Cc3ccco3)CNC2=S)c(C)c1	i	1.35
Cc1cc(C(=O)N/N=C/c2ccc[nH]2)n[nH]1	i	0.05
Cc1ccc(S(=O)(=O)n2nc(OC(=O)c3ccccc3C)cc2N)cc1	i	-0.42
COc1ccc(/C=c2\s/c(=C/C(=O)c3ccc(C)cc3)[nH]c2=O)c(OC)c1	i	3.78
COc1ccc(-c2ccc(SCC(=O)c3cccs3)nn2)cc1OC	i	0.33

Complete entries, looked up by structure:
`S=C(NCc1ccc2c(c1)OCO2)Nc1ccc2nsnc2c1` as listed: KCNQ2 inh = i; KCNQ2 inh baseline = 0.76
`CC(C)CC(=O)N1CCN(S(=O)(=O)c2ccc3ccccc3c2)CC1` as listed: KCNQ2 inh = i; KCNQ2 inh baseline = -0.11
`COc1ccc(/C=c2\s/c(=C/C(=O)c3ccc(C)cc3)[nH]c2=O)c(OC)c1` as listed: KCNQ2 inh = i; KCNQ2 inh baseline = 3.78

The list continues.
SMILES	KCNQ2 inh	KCNQ2 inh baseline
CCC(C)(C)c1nnc(NC(=O)c2cccc([N+](=O)[O-])c2)s1	i	-1.01
COc1ccc(NC(=O)C2CCC(CNc3c(N4CCOCC4)c(=O)c3=O)CC2)cc1Cl (configuration not stated)	i	0.05
Cc1cc(OCC(=O)OCC(=O)NCc2ccco2)ccc1Cl	i	0.58
CC1(C)C=C(c2ccc(C=O)s2)CC(C)(C)N1	i	-0.19
Cc1nc2c(sc(=S)n2Cc2ccco2)c(=O)n1CC(=O)Nc1ccccc1	i	-0.86
CC(=C/c1ccccc1)/C=N/n1c(-c2ccncc2)n[nH]c1=S	i	-1.51
C=CCNC(=O)COc1c(C)ccc(C)c1C	i	-0.26
Cc1c(Cl)cccc1NC(=O)NCc1ccc(F)cc1	i	0.46
Cc1cc(C(F)(F)F)nn1CC(=O)Nc1cccnc1	i	-0.85
CCOc1ccccc1CN1CCNC(=O)C1CC(=O)NC1CCCCCCC1 (configuration not stated)	i	-0.08
CCC(C)C(NC(=O)C1CCC(C)CC1)C(=O)NCc1ccco1 (configuration not stated)	i	-1.16
CC(C)OCCCNC(=O)Cn1nc(-c2ccccc2)ccc1=O	i	-0.44
O=C(c1ccc(Cn2c(=S)[nH]c3ccccc3c2=O)cc1)N1CCN(c2ccccn2)CC1	i	0.16
COc1ccc(S(=O)(=O)N2CCOC23CCN(S(=O)(=O)c2ccc([N+](=O)[O-])cc2)CC3)cc1	i	-0.16
O=C(C[n+]1cc(-c2ccc(Cl)cc2)n2c1CCCCC2)c1ccccc1	i	-0.09
CC(NC(=O)CN1CCOCC1)c1ccccc1 (configuration not stated)	i	-1.05
Cc1ccc(OS(=O)(=O)c2cn(C)c(=O)n(C)c2=O)cc1C	i	1.03
Cc1nnc(SCC(=O)Nc2nccs2)n1N	i	3
O=C(COC(=O)c1ccc(-c2ccc([N+](=O)[O-])cc2)o1)NC(=O)NC12CC3CC(CC(C3)C1)C2	i	0.67
O=c1[nH]c2ccccc2cc1-c1nnn(-c2ccccc2)n1	i	0.9
COc1cc(C(=O)Nc2ccc(NC(=O)C3CCCCC3)nc2)cc(OC)c1OC	i	-0.44
CCN(CC(=O)NC(C)C)C(=O)[C@@H](NC(=O)c1ccco1)C(C)C	i	0.12
Clc1cccc(Cl)c1CSc1nnc(/C=C/c2ccccc2)o1	i	0.12
COCCCn1c(SCC(=O)Nc2ccc(C(C)=O)cc2)nc2ccccc2c1=O	i	0.56
COc1ccccc1C(=O)OCCCN=C1NS(=O)(=O)c2ccccc21	i	2.44
COc1ccc2oc(=N)c(C(=O)Nc3ccc(Cl)cc3)cc2c1	i	-2.07

This is a subset; rates above refer to the full screens.
